GIRK2 act: opens human GIRK2 potassium channels; HEK293-GIRK2 thallium flux, Thallos fluorescence; calls only for hits at 25 µM; 63,000 tested, 0.05% active; AID 1259325;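 active = among the strongest 0.2% of first-round signals and kept after retests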;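 also: first round at about 10 µM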
Target sequence (P48051 whole entry, looked up): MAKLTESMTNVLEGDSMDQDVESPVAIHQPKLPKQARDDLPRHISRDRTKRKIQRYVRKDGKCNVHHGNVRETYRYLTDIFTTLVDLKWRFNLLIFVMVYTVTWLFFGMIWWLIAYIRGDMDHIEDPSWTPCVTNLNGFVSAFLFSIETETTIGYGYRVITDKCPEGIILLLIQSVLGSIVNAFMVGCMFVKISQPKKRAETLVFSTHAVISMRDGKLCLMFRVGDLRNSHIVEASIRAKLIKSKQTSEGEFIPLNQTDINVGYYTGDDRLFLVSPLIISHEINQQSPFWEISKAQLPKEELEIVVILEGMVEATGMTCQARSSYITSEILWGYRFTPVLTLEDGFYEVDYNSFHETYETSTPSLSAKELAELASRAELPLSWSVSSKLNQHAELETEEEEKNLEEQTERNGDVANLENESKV
Calls only; i = inactive. Only part of the results is shown. The share of hits here may be higher or lower than overall.

SMILES | GIRK2 act
O=c1c2sccc2n(Cc2nc(-c3ccc(C(F)(F)F)cc3)no2)c(=O)n1Cc1ccccc1 | i
COc1cccc(N2CCCn3c2nc2c3c(=O)n(CCc3ccccc3)c(=O)n2C)c1 | i
O=C(Cn1nc(C2CC2)cc1C(=O)N1CCCC1)NCc1cccc(Cl)c1 | i
Cn1c(=O)c2c(nc(N3CCCCC3)n2CC(O)COc2ccc(Cl)cc2)n(C)c1=O (configuration not stated) | i
O=C(NCC1CCN(Cc2cccs2)CC1)Nc1ccccc1Cl | i
CCCCCCCC(=O)CC[C@@H]1[C@@H](C/C=C\CCCC(=O)O)[C@@H](O)C[C@H]1O | i
O=C(NCC#CCN1CCOCC1)Nc1ccc(F)cc1 | i
COc1ccc2[nH]c3c(SCC(=O)Nc4ccc(Br)cc4F)ncnc3c2c1 | i
CCOc1ccc(C(=O)Nc2ccc3c(c2)CCC(=O)N3CC)cc1 | i
O=C(NCCc1ccccc1)C(=O)NCC1CCN(C2CCCC2)CC1 | i
O=C1N[C@@H](Cc2ccccc2)C(=O)N2C[C@H](O)C[C@H]12 | i
CCCCC(Sc1c(CCC)cnc2c1c(=O)n(C)c(=O)n2C)C(=O)O (configuration not stated) | i
O=C(Cc1ccc(Cl)cc1)NCC1(CO)CC1 | i
CNC(=O)CCc1nc2ccccc2n(CC(=O)Nc2cc(Cl)ccc2C)c1=O | i
Cc1cc(F)ccc1S(=O)(=O)NCC1CCN(C(=O)c2ccoc2)CC1 | i
CCOC(=O)N1CCC(NC(=O)c2nnn(-c3ccc(OC(F)(F)F)cc3)n2)CC1 | i
CC(=O)c1cccc(NC(=O)Cn2nc(-c3ccccc3)c3sc(N4CCCC4)nc3c2=O)c1 | i
COc1nn(C)cc1C(=O)NCC(=O)NCCc1ccc(Cl)cc1 | i
COc1ccc(-c2cc3c4nn(CC(=O)Nc5cccc(C(C)=O)c5)c(=O)n4ccn3n2)cc1 | i
O=C(c1csc(Nc2ncccn2)n1)N1CCN(c2ccc(C(F)(F)F)cn2)CC1 | i
COc1ccc(-n2ncc(C(=O)N3CCN(C(=O)c4ccco4)CC3)c2-n2cccc2)cc1 | i
Cc1cccc(-c2nc3c(c(SCC(=O)N4CCOCC4)n2)CCCC3)c1 | i
Cc1ccc(NC(=O)CSC2=Nc3ccccc3C3=NC(C)C(=O)N23)c(C)c1 (configuration not stated) | i
COc1ccc(-n2c(SCC(=O)Nc3ncn[nH]3)nc3ccccc3c2=O)cc1 | i
Cc1cc(NC(=O)CN2CCC(c3nn(C)c(=O)n3-c3ccccc3)CC2)no1 | i
COc1cc(C(=O)N2CCC(Cn3ccnc3)CC2)cc(OC)c1OC | i
O=C(c1ccc2ncsc2c1)N1CCN(C(=O)c2cnn3ccccc23)CC1 | i
O=C(CNC(=O)C1CCCCC1)Nc1cc(Cl)cc(Cl)c1 | i
O=C(NCCN1CCN(C(=O)NC(c2ccccc2)c2ccccc2)CC1)c1cccs1 | i
CC(C)(Oc1ccc(Cl)cc1)C(=O)N1CCC2(CC1)OCCS2 | i
CCOc1ccc2cccc(NC(=O)Cc3cccc(OC)c3)c2n1 | i
O=C(Nc1cccc(Cl)c1)c1n[nH]n2c1nc(=O)c1cc(Cl)ccc12 | i
CCOCCN1N=C(C)Cn2c1nc1c2c(=O)n(CC)c(=O)n1C | i
O=C(Cn1c(=O)oc2ccccc21)NCC1(O)CCc2ccccc2C1 (configuration not stated) | i
COc1ccccc1Oc1ccc(S(=O)(=O)Nc2ccccc2F)cc1 | i
COc1ccc(S(=O)(=O)N2CCN=C2SCc2ccccc2C)cc1 | i
COCCN1CCC(NC(=O)COc2ccccc2OC)CC1 | i
CS(=O)(=O)c1ccc(Nc2nc(C(=O)Nc3ccc(C(N)=O)cc3)cs2)cc1 | i
COc1ccc(Nc2nn3c(=O)c4cc5c(cc4nc3s2)OCO5)cc1 | i
CC(C(=O)NCc1nc2ccccc2[nH]1)n1nc(-c2cccs2)ccc1=O (configuration not stated) | i
CCOC(=O)C(=O)N1CCC(Cn2ccnc2CC)CC1 | i
COc1ccc(N2C=C(C#N)S(=O)(=O)c3ccc(F)cc32)cc1Cl | i
COc1ccc(CCNC(=O)C(=O)Nc2ccc(N3CCCS3(=O)=O)cc2)cc1 | i
Cc1ccc2c(c1)c(C1=C(c3cn(C)c4ccccc34)C(=O)NC1=O)cn2C | i
C=CCNC(=O)c1sccc1N(CC)S(=O)(=O)c1ccccc1 | i
COc1ccc(S(=O)(=O)Nc2cccc(C(=O)Nc3sc4c(c3C#N)CCCCC4)c2)cc1 | i
Cc1ccc2[nH]c3c(=O)n(CCC(=O)NCCc4ccccc4)cnc3c2c1 | i
CC(C)c1ccc(/C=C2\Oc3cc(OCC#N)ccc3C2=O)cc1 | i
O=S(=O)(c1ccc(C(F)(F)F)cc1)N1CCC(Oc2ncccc2Cl)CC1 | i
Cc1cc(C)nc(Nc2nc(CC(=O)Nc3ccc4cn[nH]c4c3)cs2)n1 | i
CC(=O)Cn1c(=O)c2c(nc3n(-c4ccccc4F)c(C)cn23)n(C)c1=O | i
CCOC(=O)c1ccc(S(=O)(=O)N2CCN(c3cc(N4CCCC4)ncn3)CC2)cc1 | i
Cc1cc(C(=O)N2CC(C(=O)NCc3cccs3)C2)no1 | i
O=C(c1ccco1)N1CCN(C(=O)C2CCN(c3cc(Oc4ccccc4)ncn3)CC2)CC1 | i
COC(=O)CCn1c(=O)c2c(nc3n(C(C)c4ccccc4)c(C)cn23)n(C)c1=O (configuration not stated) | i
COC(=O)c1ccc(S(=O)(=O)N2CC(c3nc(-c4cccs4)no3)C2)cc1 | i
O=C(NCC1(O)CCOc2ccccc21)C1(c2ccc(Cl)cc2)CCCC1 (configuration not stated) | i
Cc1ccc(N2C(=O)CC(N3CCN(c4ccccc4)CC3)C2=O)c(C)c1 (configuration not stated) | i
COc1ccc(/C=C2\C=C(CC(=O)O)c3cc(F)ccc32)cc1 | i
COc1cccc2sc(N(C)CC(=O)Nc3ccccc3-c3ccccc3)nc12 | i

Remaining list, next part
SMILES | GIRK2 act
Cc1nc(-n2nc(-c3cccs3)cc2NC(=O)/C=C\c2ccc3c(c2)OCO3)[nH]c(=O)c1C | i
Cc1ccc(S(=O)(=O)CCCC(=O)N(CCN(C)C)c2nc3ccc(F)cc3s2)cc1 | i
COc1cccc(CN2COc3ccc4c(c3C2)O/C(=C\c2ccncc2)C4=O)c1 | i
O=C(O)CCc1nc2ccc(Cl)cc2[nH]1 | i
Cn1cc(-c2cccs2)nc1CCNC(=O)Nc1cccc(C(F)(F)F)c1 | i
COc1ccccc1N1C(=O)N(c2ccc(Cl)cc2)C2CS(=O)(=O)CC21 (configuration not stated) | i
COc1ccc(/C=C2\Oc3cc(OC)ccc3C2=O)c(OC)c1 | i
CCCC(=O)N1CCN(C(=O)C(NC(=O)c2cccs2)S(=O)(=O)c2ccc(Cl)cc2)CC1 (configuration not stated) | i
COc1ccccc1N1CCN(C(=O)c2csc3nc(-c4ccc(F)cc4)cn23)CC1 | i
CCCc1cnc2c(c1SCC(=O)NCCOC)c(=O)n(C)c(=O)n2C | i
O=C(c1ccccc1)N1CCCc2cc(NS(=O)(=O)c3ccc(Br)cc3)ccc21 | i
COCCn1cnc2c(-c3ccccc3)cn(CC(=O)Nc3cccc(C)c3C)c2c1=O | i
O=S(=O)(Cc1ccc(F)cc1)N(Cc1ccsc1)Cc1ccco1 | i
CCOC(=O)c1ccc(-n2c(C)c(C)n3c4c(=O)n(CC(N)=O)c(=O)n(C)c4nc23)cc1 | i
CCOc1ccccc1-c1noc(Cn2c(=O)n(-c3ccccc3C(=O)OC)c(=O)c3ccccc32)n1 | i
Cc1nnc2c(S(=O)(=O)N(Cc3ccccc3Cl)c3ccc(F)c(F)c3)cccn12 | i
Cn1c(=O)[nH]c(=O)c2c1nc(NCCN1CCOCC1)n2CC(O)COc1ccccc1 (configuration not stated) | i
O=C(CCn1ccc(=O)[nH]c1=O)N1CC(c2nc(-c3cnccn3)no2)C1 | i
O=C(CN1CCN(C(=O)Nc2cccs2)CC1)c1cccs1 | i
CCCNC(=O)CSc1nc(-c2ccco2)cc(C(F)(F)F)c1C#N | i
O=C(CSc1nnc(N2CCN(c3ccc(F)cc3)CC2)s1)NCc1ccc2c(c1)OCO2 | i
CSc1ccc(CN2CC(c3nc(C)no3)C2)cc1 | i
O=C(Nc1ccc2c(c1)OCO2)Nc1ccc2c(c1)N(S(=O)(=O)c1ccc(F)cc1)CCC2 | i
CC(C)C(NC(=O)c1cccs1)c1nc2ccccc2[nH]1 (configuration not stated) | i
CCOC(=O)/C=C/[C@H](CC(C)C)NC(=O)C(CO)NC(=O)[C@@H](NC(=O)c1cccc(O)c1C)C(C)C (some centres not stated) | i
COc1ccc(C(=O)N2CCC(c3nnc(C4CC4)o3)CC2)cc1OC | i
O=C(Nc1nnc(-c2cc(Cl)sc2Cl)o1)c1cnccn1 | i
Cn1cc(-c2ccco2)nc1CCNC(=O)C(c1ccccc1)c1ccccc1 | i
CN1CCN(C(CNC(=O)c2cc3ccccc3oc2=O)c2cccn2C)CC1 (configuration not stated) | i
CC(C)Oc1ccc(C(=O)N2CCN(CC(O)C3CC3)CC2)cc1 (configuration not stated) | i
COc1cccc(CC(=O)Nc2ccc(Cn3cnc(C(=O)Nc4cccc(F)c4)c3)cc2)c1 | i
O=C(NCCOc1cc(N2CCCC2)ncn1)NCc1ccccc1 | i
CCc1noc(-c2ccc(SCC(=O)Nc3cc(Cl)ccc3OC)nc2)n1 | i
COc1cc2nc(SCC(=O)Nc3cccc(Cl)c3)n3nc(C)nc3c2cc1OC | i
CCCCOc1ccc(NC(=O)NCC(O)c2cccs2)cc1 (configuration not stated) | i
Cn1c(=O)n(CCN2CCCCC2)c(=O)c2c1nc1n2CCCN1c1ccc(Cl)cc1 | i
O=C(c1ccoc1)N1CCOC2(CCOCC2)C1 | i
Cc1ccccc1C(=O)N1CC2(COC(C)(C)OC2)C1 | i
Cc1ccc2nc3c(cc(C(=O)Nc4ccc5c(c4)OCCO5)n3C)c(=O)n2c1 | i
Cc1ccc(N2CN(CC(=O)N3CCCC3)S(=O)(=O)c3cccnc32)cc1 | i
CCc1ccc(S(=O)(=O)NCC2CCN(C)CC2)cc1 | i
Cc1ccc(NS(=O)(=O)c2n[nH]c(C)c2C(=O)Nc2ccc(C(N)=O)cc2)cc1 | i
O=C(NCCC(O)c1ccc2c(c1)OCO2)C1CC=CCC1 (configuration not stated) | i
CCOC(=O)C1=C(C)N(Cc2ccccc2)C(=O)NC1c1ccc(OCc2ccccc2)cc1 (configuration not stated) | i
O=C(c1ccncc1)N1CCC(CNS(=O)(=O)c2ccc3c(c2)CCCC3)CC1 | i
CN(C)c1cccc(C(=O)NC2CCN(C(=O)c3cc(-c4ccccc4)n[nH]3)CC2)c1 | i
Cc1cc(C)cc(-n2cc(C(=O)N3CCC(NC(=O)c4ccc(C#N)cc4)CC3)nn2)c1 | i
CC1C(=O)N2CCCc3cc(NC(=O)C(=O)NCC(O)c4ccc5c(c4)CCO5)cc1c32 (configuration not stated) | i
O=C(CC1CCCCC1)NC1CCN(C(=O)c2cn(-c3ccccc3)nn2)CC1 | i
COc1ccc(-c2noc(-c3sccc3S(=O)(=O)N(C)c3ccc(F)c(F)c3)n2)cc1OC | i
O=C(c1cc(-c2cccs2)[nH]n1)N1CCn2c1nc1ccccc12 | i
CCc1ccc(S(=O)(=O)c2cnc(SCC(=O)Nc3ccc(C(C)C)cc3)[nH]c2=O)cc1 | i
Cc1cccc(-n2nnc(C(=O)NCc3ccccc3C(F)(F)F)c2-c2cccnc2)c1 | i
O=C(O)Cn1c(C2CC2)nc2ccccc21 | i
Cc1cc(NC(=O)CSc2nnc(N3CCN(C(=O)/C=C/c4ccccc4)CC3)s2)no1 | i
CCOCCn1c(=O)c2c(nc3n2CCCN3c2ccc(OC)cc2OC)n(C)c1=O | i
O=C(CSc1nc2ccc(N3CCCCC3)cc2c(=O)n1Cc1ccccc1)NCc1ccco1 | i
Nc1c(C(=O)c2cccc(CCC3(O)CCCC3)c2)cnn1-c1ccc(F)cc1 | i
COc1ccccc1OCC#CCNS(=O)(=O)c1ccccc1F | i
O=C(Nc1ccc(N2CCCS2(=O)=O)cc1)c1cccc(Cl)c1 | i

(more compounds)
SMILES | GIRK2 act
O=C(Nc1nc2ccccc2s1)c1ccc(Cl)c(S(=O)(=O)N2CCCCCC2)c1 | i
Cc1csc(-n2nnc(C(=O)N3CCN(S(C)(=O)=O)CC3)c2C)n1 | i
COc1cc(OC)c(NC(=O)Cn2cnc3c(oc4ccccc43)c2=O)cc1Cl | i
COc1ccccc1-n1ncc2c(C(C)C)nnc(SCC(=O)NCc3ccco3)c21 | i
CCc1cccc(C)c1NC(=O)COc1cc(=O)n2ccccc2n1 | i
